# RanGTP-Imp inh: inhibitors of RanGTP-importin-beta interaction, primary screen, biochemical, FRET, CFP-Ran, YFP-importin-beta, homogeneous | Ran GTPase (GTP-bound) - importin-beta complex | cell-free CFP-Ran/YFP-importin-beta FRET ratio | inhibition, % (concentration not given with the values) | 300,000 tested, 1.1% active | AID 2216, 2009;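 active = most replicates above 15%; inconclusive = exactly half above 15%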;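 note: 0% = DMSO wells and 100% = Ran loaded with GDP instead of GTP; wells of about 40 µL received 100 nL stock; the first replicate is given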
# T cruzi inh: inhibitors of intracellular T. cruzi growth, primary screen, luminescence, NIH3T3 host cells | T. cruzi beta-gal in NIH3T3, 90 h | inhibition, % (concentration not given with the values) | 300,000 tested, 1.4% active | AID 1885, 2009;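 active = mean inhibition across valid replicates above about 55%, limit read from the data; inconclusive = mean below that limit but half or more replicates reach it; inactive = mean below it, under half of replicates reach it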;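 note: signal also drops with host cell toxicity which is not excluded here; 0% = plate median of DMSO wells and 100% = zero luminescence signal; higher percent means less beta-gal luminescence so fewer parasites; stock transfer was 50 nL into about 50 µL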
# Ecoli rRNA inh: reduced GFP signal of wild-type E. coli, primary screen, bacterial rRNA inhibitor project, GFP/RFP fluorescence, OD600, single point; E. coli WT GFP vs humanized-ribosome RFP mutants, 24 h; hits give low values; DMSO median 0, no signal -100; GFP signal change (wild-type ribosome), % (no concentration beside the values); AID 720706, 2013; 350,000 tested, 1.6% active;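 active = significant combined selectivity score with lowered wild-type GFP, culture density cut under 30%, mutant RFP and density less affected; inactive = any of these conditions unmet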; note: one replicate is shown; some compounds called inactive have numbers as strong as hits
# MLL AF4-AF9 inh: inhibitors of AF4 peptide binding to AF9, primary screen, biochemical, AlphaScreen, biotin-AF4 peptide, FLAG-AF9, single point. Protein AF-9 (Homo sapiens), P42568. inhibition, % at 10 µM. 350,000 tested, 0.47% active. AID 651704, 2012;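 active = every replicate reaching a set inhibition limit, whatever the replicate mean, cut at about 25% in these data; inconclusive = mean inhibition reaches that limit but some replicates miss it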;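 note: 0% = plate neutral control median and 100% = total signal loss; the record names both 10 and 1 µM as test concentration; the first replicate is given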
# Target sequence (P42568 whole entry, looked up): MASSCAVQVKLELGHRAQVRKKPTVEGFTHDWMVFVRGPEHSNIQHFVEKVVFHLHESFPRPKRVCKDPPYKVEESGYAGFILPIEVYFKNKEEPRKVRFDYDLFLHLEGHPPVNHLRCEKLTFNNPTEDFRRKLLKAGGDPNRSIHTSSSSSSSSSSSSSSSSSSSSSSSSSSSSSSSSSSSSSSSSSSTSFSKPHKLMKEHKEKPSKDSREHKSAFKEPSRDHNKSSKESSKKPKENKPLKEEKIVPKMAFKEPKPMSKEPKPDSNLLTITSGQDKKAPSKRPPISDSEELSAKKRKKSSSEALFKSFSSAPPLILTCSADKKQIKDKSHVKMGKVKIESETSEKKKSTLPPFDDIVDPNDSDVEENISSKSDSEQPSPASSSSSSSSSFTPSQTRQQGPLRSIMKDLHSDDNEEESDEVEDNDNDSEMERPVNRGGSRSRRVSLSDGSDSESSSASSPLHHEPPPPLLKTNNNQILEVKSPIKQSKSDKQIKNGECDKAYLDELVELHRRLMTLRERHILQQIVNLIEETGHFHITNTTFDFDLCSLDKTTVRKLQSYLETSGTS
# FGF22 binding: binders of human FGF22 protein, primary screen, FGF22 synaptogenesis inhibitor project, biophysical, thermal shift, single point; Fibroblast growth factor 22 (Homo sapiens), Q9HCT0; recombinant FGF22 thermal shift, SYPRO orange fluorescence; percent of sucrose octasulfate shift, DMSO zero; calls only at 9.99 µM; 340,000 tested, 1.5% active; AID 651658, 2012;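 active = melting point raised past a set limit in the mean and every replicate; inconclusive = no clear call; three in four hits are not shown here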
# Target sequence (Q9HCT0 whole entry, looked up): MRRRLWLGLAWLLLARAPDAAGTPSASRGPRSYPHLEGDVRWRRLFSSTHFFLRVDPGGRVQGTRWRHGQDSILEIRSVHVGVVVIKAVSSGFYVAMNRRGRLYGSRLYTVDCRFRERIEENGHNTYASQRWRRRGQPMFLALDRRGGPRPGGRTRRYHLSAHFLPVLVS
# Calb FLC: C. albicans growth inhibition with fluconazole, primary screen, CaCi-2 strain, Alamar Blue fluorescence | C. albicans CaCi-2 (fluconazole-resistant clinical isolate) + fluconazole, 48 h | growth inhibition, % (test concentration not listed) | 300,000 tested, 0.57% active | AID 1979, 2009;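 active = most replicates above 75%; inconclusive = exactly half above 75%; inactive = most below 75%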;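 note: all wells also contain fluconazole at 8 µg/ml as a sub-toxic cotreatment; 0% = median of DMSO wells and 100% = median of geldanamycin control wells; wells of about 8 µL received 7.5 nL stock; the first replicate is given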
# Beta apoptosis: inhibitors of cytokine-induced beta cell apoptosis, primary screen, luminescence | INS-1E cytokine-induced death, ATP luminescence, 48 h; percent of positive-control rescue, neutral wells zero | protection from apoptosis, % (test concentration not listed) | 300,000 tested, 0.8% active;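 active = all replicates at 75% or more, or half of them and the mean; inconclusive = half reach 75% but not the mean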;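 note: 0% = cytokine-treated negative control wells and 100% = positive control rescue; higher means more ATP so stronger rescue from cytokine killing; wells of about 40 µL received 100 nL stock; the first replicate is given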
# ALR inh: inhibitors of human ALR sulfhydryl oxidase, primary screen, biochemical, H2O2 detection, HRP-luminol luminescence, single point; inhibition, % (test concentration not listed); purified ALR, DTT oxidation; 290,000 tested, 3.8% active; AID 485317, 2010;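 active = mean and each replicate at 75% or more; inconclusive = only one of the two met; inactive = neither met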;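 note: stock transfer was 7.5 nL into about 7.5 µL; 0% = neutral wells and 100% = wells with inactivated enzyme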
# Target sequence (P55789 whole entry, looked up): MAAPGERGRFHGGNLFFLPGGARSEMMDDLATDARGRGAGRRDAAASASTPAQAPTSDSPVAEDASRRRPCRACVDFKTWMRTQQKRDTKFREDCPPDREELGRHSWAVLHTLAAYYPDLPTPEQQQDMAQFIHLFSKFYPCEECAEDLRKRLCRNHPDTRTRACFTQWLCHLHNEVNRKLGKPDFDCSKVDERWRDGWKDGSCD
# Ecoli rRNA inh OD600: recorded beside Ecoli rRNA inh, whose call it bears; OD600 change, %; measured here: OD600 growth;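 optical density of the mix in the first replicate; 0 = DMSO median and -100 = no signal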
# Ecoli rRNA inh RFP: second read-out of Ecoli rRNA inh, no call of its own (marks repeat the call); RFP signal change, %; measured here: RFP humanized mutant strains;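 first replicate; 0 = DMSO median and -100 = no signal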
# Numbers without * were called inactive; i = inactive; ? = inconclusive; / = no result given. Only part of the results is shown (hit frequency here may not be typical).
SMILES,RanGTP-Imp inh,T cruzi inh,Ecoli rRNA inh,Ecoli rRNA inh OD600,Ecoli rRNA inh RFP,MLL AF4-AF9 inh,FGF22 binding,Calb FLC,Beta apoptosis,ALR inh
COCCNC(=O)CSc1ccccc1C(=O)NC1CCCc2ccccc21 (centres undefined),5.1,8,9,11,0.4,-0.2,i,-7,3,2
CCOc1nc(-c2ccncc2)nc2ccccc12,3.1,-23,/,/,/,/,/,-16,-7,0
O=C(NCc1cccs1)C1CC(=O)N(c2ccc(Cl)cc2)C1 (centres undefined),-2.7,-5,/,/,/,-2.1,/,26,-2,0
Cc1ccc(S(=O)(=O)N(C)CC(=O)OCC(=O)NC(=O)NC(C)C)cc1,3.6,8,6,4,2.3,-4.8,i,1,-11,4
CC(C)CN(C(=O)COc1ccc(Br)cc1C=O)C1CCS(=O)(=O)C1 (centres undefined),-1.2,34,12,19,1.2,-9.8,i,0,-2,-2
O=C(COc1ccc(NC(=O)c2cccs2)cc1)c1ccc(F)cc1,/,7,-4,5,-4.0,-1.8,i,/,0,-2
Cn1c(=O)c(=O)n(C)c2cc(S(=O)(=O)N3CCCCC3)ccc21,0.8,-4,/,/,/,/,/,2,2,2
OCCNCCNCc1ccccc1OCc1ccccc1,4.1,2,18,5,1.1,-0.6,i,4,-6,/
CN(Cc1ccccc1)C(=O)c1nc2ccccn2c1CNCCOc1cccnc1,4.4,5,2,8,-0.9,-4.4,i,-8,2,/
O=C(Nc1ccc(F)cc1F)c1sccc1SCc1cccc(C(F)(F)F)c1,3.3,25,/,/,/,/,/,14,4,-3
C=CCn1c(SCc2ccc(F)cc2)nc2c1c(=O)[nH]c(=O)n2C,-2.2,-6,-4,-6,-2.6,-0.7,i,-11,3,-2
Cc1cc(C(=O)Nc2ccc(F)c(Cl)c2)on1,-2.2,-6,5,17,-3.7,-1.9,i,-3,-4,-9
NC1=NC2(CCCC2)N=C(Nc2ccccc2)N1,3.2,7,17,20,0.3,5.0,i,10,-3,/
CC(NC(=O)NC1CCCCC1)C(c1cccs1)N1CCOCC1 (centres undefined),-1.6,-7,1,8,-1.8,2.4,i,-12,-3,/
COc1ccc(S(=O)(=O)N2CCN(Cc3ccc(Cl)cc3)CC2)cc1,0.4,22,/,/,/,/,/,-2,-4,0
CCOc1ncccc1C(=O)NCCCSc1ccccc1,?,5,-15,-24,-5.3,-4.8,i,-5,-5,-2
CC1CCc2sc3c(c2C1)c1ncnn1c(=O)n3CC(=O)c1ccc(Br)cc1 (centres undefined),-2.0,-24,/,/,/,/,/,14,-3,-2
COc1cccc(N2CCN(c3ccc(N4C(=O)CCC4=O)cc3[N+](=O)[O-])CC2)c1,-1.9,-16,-12,-3,4.3,4.4,i,0,2,30
CCOc1ccc(NC(=O)CSCC(=O)O)cc1,1.3,4,/,/,/,/,/,-2,2,-11
O=C(Nc1ccccc1)Nc1nnc(CSCc2ccccc2Cl)s1,8.1,25,8,17,1.6,-2.6,i,7,-2,2

# Overlap with the part before: 2 entries, followed by the next part.
SMILES,RanGTP-Imp inh,T cruzi inh,Ecoli rRNA inh,Ecoli rRNA inh OD600,Ecoli rRNA inh RFP,MLL AF4-AF9 inh,FGF22 binding,Calb FLC,Beta apoptosis,ALR inh
CCOc1ccc(NC(=O)CSCC(=O)O)cc1,1.3,4,/,/,/,/,/,-2,2,-11
O=C(Nc1ccccc1)Nc1nnc(CSCc2ccccc2Cl)s1,8.1,25,8,17,1.6,-2.6,i,7,-2,2
O=c1cc(N2CCN(c3ccc(F)cc3)CC2)[nH]c(=O)n1Cc1ccc(F)cc1,5.4,-8,0,1,5.4,-0.5,i,1,-1,2
CC(=O)c1ccc(NC(=O)C2(S(=O)(=O)c3ccccc3)CC2)cc1,-2.9,-15,-5,2,-1.6,1.0,i,-44,1,-7
CCOC(=O)CCc1c(C)n(CC)c2ncnn2c1=O,5.8,-2,12,10,0.2,-7.8,i,13,-10,2
COc1ccc(CCNC(=O)CCC(=O)Nc2ccccc2[N+](=O)[O-])cc1OC,-3.5,-9,4,12,-2.1,-5.6,i,-5,-2,-9
C=CCN1C(=O)NC2(O)C(=O)c3ccccc3C12O (centres undefined),3.0,-8,/,/,/,/,/,-11,-8,-8
CCN1C(=O)/C(=C2/C=Cc3cc(C)ccc3N2CC)N(C)C1=S,-3.4,5,/,/,/,/,/,-9,30,57
Cc1cc(/C=N/n2cnnc2)c(C)n1-c1cccc(C(=O)O)c1,2.1,4,7,5,-3.9,-26,i,7,-2,2
CC1CN(S(=O)(=O)c2ccc(C(=O)Nc3nncs3)cc2)CC(C)O1 (centres undefined),/,/,5,17,-0.6,-3.1,i,/,-5,0
CCOC(=O)CC1(NC(=O)c2cc(COc3ccc(F)c(F)c3)on2)CCCCC1,4.7,15,-2,-6,-0.5,-11,i,-2,3,-48
CC(NC(=O)CCNC(=O)c1ccccc1Cl)C1CC2CCC1C2 (centres undefined),?,-7,18,14,-0.1,-3.0,i,37,-8,-8
O=[N+]([O-])c1ccc(Cc2nnc(-c3ccccc3Cl)o2)cc1,11,0,2,7,-5.1,-16,i,2,7,4
O=C(NCCSCc1c(F)cccc1Cl)c1ccco1,2.5,-12,/,/,/,/,/,2,-6,-2
O=C(Nc1ccc(Cl)cc1C(=O)NCc1cccnc1)c1ccco1,0.2,-1,/,/,/,/,/,6,-5,1
O=C(c1cnccn1)N1CCc2ccccc21,0.4,-17,/,/,/,/,/,-2,0,73
Cc1noc(C)c1CSc1ccccc1C(=O)Nc1nccs1,-3.2,-11,/,/,/,/,/,9,-3,0
CC(C)C[C@H](NC(=O)N1CCn2c1nc1ccccc12)C(=O)NCc1ccccc1,-3.0,22,14,7,4.9,1.8,i,-5,-3,-2
O=C(Cn1[nH]c(=O)c2ccccc2c1=O)NC1CCCCCC1,5.1,6,/,/,/,/,/,-22,0,/
CN1CCN(C(CNS(=O)(=O)c2ccc(F)cc2)c2cccnc2)CC1 (centres undefined),2.8,31,/,/,/,/,/,-2,-1,/
Cc1cccc2cc(COC(=O)c3ccccn3)c(=O)[nH]c12,-3.0,/,/,/,/,/,/,-4,3,-2
O=[N+]([O-])c1ccc2[nH]c3nc4ccccc4nc3c2c1,5.5,17,15,24,0.2,-0.5,i,3,18,0
O=C(CSc1nnc(-c2cnccn2)n1Cc1ccco1)c1ccc(Cl)c(Cl)c1,1.8,-9,/,/,/,/,/,?,-11,?
O=C(CSc1nncs1)Nc1ccc2c(c1)OCCO2,10,-12,/,/,/,/,/,3,-2,-1
COC(=O)C1CCCN1C(=O)COc1ccc(Cl)cc1Br (centres undefined),?,-9,/,/,/,/,/,-9,7,-5
O=C(Nc1ccccc1)NC1CCCCC1,?,-6,/,/,/,/,/,13,2,22
Cc1c(C(=O)NCCSCc2cccc(C(F)(F)F)c2)cnn1-c1ccc(F)cc1,-0.3,14,-37*,-15*,2.8*,1.2,i,3,4,-5
COc1ccc2cc3cc(C(=O)N4CCCCC4C)oc3nc2c1 (centres undefined),-0.3,5,-18,-25,-4.3,2.6,i,1,3,-10
COc1ccc(NC(=O)Oc2cc(C)ccc2C(C)C)cc1,2.1,-3,1,-18,-10,-2.4,i,-12,0,-11
O=C(C=C1NCCN1)c1ccccc1,9.3,-14,2,2,3.7,0.9,i,-1,3,5
CCN(C(=O)c1ccc(S(C)(=O)=O)cc1)C12CC3CC(CC(C3)C1)C2,7.5,-4,/,/,/,1.2,i,-13,2,/
COC(=O)c1oc2ccc(Cl)cc2c1N,4.3,-11,/,/,/,/,/,-14,1,23
O=C(/C=C\c1ccc(-c2cccc([N+](=O)[O-])c2)o1)N1CCOCC1,4.0,1,9,9,-9.7,4.8,i,97*,2,-10
CCOC(=O)C1CCN(Cc2cnc(Oc3ccc(N)cc3)s2)CC1,-1.3,19,/,/,/,/,/,-17,0,98*
COc1ccc(F)cc1C(=O)C1CCCN(Cc2cccn2-c2ccccn2)C1 (centres undefined),/,25,-3,0,0.4,5.4,i,12,6,-3
COc1ccc(NC(=O)CCSc2ccc(C)cc2)cc1,4.9,5,/,/,/,-0.1,i,-3,-1,-27
Cc1ccc(S(=O)(=O)Nc2cccc3cccnc23)cc1,-0.6,49,/,/,/,/,/,7,35,-4
CCCCC(=O)Nc1nnc(SCC(=O)Nc2ccc(OC)cc2)s1,1.3,1,6,14,-0.7,-0.9,i,-5,-3,18
COc1ccc(S(=O)(=O)N(CC(=O)NCCC(C)C)c2ccccc2)cc1OC,2.8,5,2,20,-0.5,-1.1,i,5,-1,-4
COc1ccc(Cl)cc1NC(=O)Cn1nc(-c2ccc(C)cc2)n(C)c1=S,-0.3,1,/,/,/,/,/,6,-5,3
CC(C)N(Cc1ccccc1)C(=O)CN1C(=O)NC2(CCOc3ccccc32)C1=O (centres undefined),/,/,-2,0,0.6,0.0,i,/,4,-7
COc1cccc(C2CC(c3cccs3)=NN2C(=O)CCC(=O)O)c1OC (centres undefined),-3.2,-12,5,4,3.2,5.4,i,2,-32,-2
Cc1cccc(C)c1NC(=O)CSc1ncnc2nc[nH]c12,-2.0,0,7,9,-0.7,0.3,i,9,-2,-2
Cc1ccc(/C=C/C(=O)NCc2cccs2)o1,5.4,-22,27,19,14,-7.8,i,-6,-10,66
O=C(Nc1cccnc1)c1cccc(F)c1,-2.7,-17,9,12,4.9,-3.6,i,24,-3,-2
CC1=CC(C)(C)n2c(O)c(N=N)c3c(C)ccc1c32,?,1,-57,-82,-25,19,i,-1,-5,-1
O=[N+]([O-])c1cc(C(F)(F)F)ccc1Sc1nccn1Cc1ccccc1,4.1,10,/,/,/,/,/,5,-2,-10
COc1ccc(NC(=O)c2cc(Cl)ccc2Cl)c([N+](=O)[O-])c1,5.6,-5,/,/,/,-4.7,i,-4,5,/
COc1ccc(C2C(C(=O)/C=C/c3ccco3)=C(O)C(=O)N2CCN2CCOCC2)cc1 (centres undefined),-4.9,-11,12,0,4.7,-2.0,i,33,-5,-194
COc1cccc(CN2CCC(C(=O)N3CCN(c4ccccc4F)CC3)CC2)c1OC,0.6,4,/,/,/,/,/,-2,-2,8
COCCOc1ccc(C(F)(F)F)cc1NC(=O)CN1C(=O)NC2(CCCc3ccccc32)C1=O (centres undefined),/,/,-8,-13,-0.4,0.4,i,/,7,-10
O=C(Cc1cn2ccsc2n1)NCc1ccccc1,-0.2,-18,16,-2,-0.3,-16,i,6,-2,3
CC(=O)Nc1ccc(OCC(O)Cn2cncn2)cc1 (centres undefined),0.8,-8,18,9,4.5,0.5,i,-12,/,-5

# High-throughput results as filed in PubChem BioAssay.
